Autofluor counter: compound fluorescence in toxin protease inhibitor counterscreen. hit rate 3.1% among 360,000. compound autofluorescence counterscreen, microsphere flow cytometry; active compounds read high. fluorescence intensity (test concentration not listed). AID 624483;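 active = at least 3 SD above the mean of all compounds, about 16000 in these data; inconclusive = too few beads counted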;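 note: 100 nL of 1 mM stock went into each well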
BJeLR viability: MLPCN primary cell-based screen for lethality selective to Ras in HRASV12 cells; BJeLR (HRASV12) viability, CellTiter-Glo ATP luminescence, 48 h; reference of the scale not given here; inhibition, % (concentration not given with the values); hit rate 0.17% among 300,000; AID 1554, 2009;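 active = replicate mean above 50%; inconclusive = above 50% but judged a plate artefact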;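 note: 50 nL library stock added to about 25 µL; numbers are from one replicate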
Sa RN4220 lethal: growth inhibition of S. aureus RN4220, primary screen, OD600. 16 h. inhibition, % (concentration not given with the values). hit rate 0.33% among 330,000;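 active = z-score of -3 or lower and OD600 up to 0.18 on both plates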;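 note: plate controls were untreated cells for no effect and reference antibiotic for full effect; stock transfer was 100 nL into about 80 µL; one replicate is shown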
ugtP null kill: growth inhibition of ugtP-null S. aureus, primary screen, RN4220 ugtP deletion, OD600 | growth inhibition, % (no concentration beside the values) | hit rate 0.54% among 330,000 | AID 1259309, 2017 | 16 h; some inactives read as strong as hits;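 active = z-score under -3 and OD600 up to 0.15 on both plates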;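 note: plate controls were untreated wells for no effect and antibiotic for full effect; wells of about 80 µL received 100 nL stock; the first replicate is given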
PrP UTR inh: inhibition of PrP 5' UTR reporter expression | cell-based PrP 5' UTR mRNA reporter, plate reader | inhibition, % (test concentration not listed) | hit rate 0.35% among 340,000 | AID 488862, 2010;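 active = every replicate at 50% or more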;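 note: 0 = median of the neutral control wells; tested in H4 reporter cells; numbers are from one replicate; inactives centre near -14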
Mtb hypoxia rep: PubChem AID 1159583. M. tuberculosis hypoxia-regulated fluorescent reporter, fluorescence. fluorescence inhibition, % (test concentration not listed). hit rate 0.1% among 300,000;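 active = 35 to 45% if threefold the growth effect, above 45% if 1.5-fold the growth effect; inactive = the rest, general growth blockers included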;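 note: wells of about 50 µL received 100 nL stock; 0% = vehicle wells and 100% = reference inhibitor wells; whole bacteria with a GFP reporter of the hypoxia response; strong numbers were not always called active; many hits fall short of the cut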
Mtb hypoxia rep growth: second read-out of Mtb hypoxia rep, no call of its own (marks repeat the call); growth inhibition, %; measured here: M. tuberculosis growth (absorbance);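 0% = vehicle and 100% = reference antibiotic; read after six days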
* hit, by the source's call; ? = inconclusive; · = not tested or not shown.

SMILES | Autofluor counter | BJeLR viability | Sa RN4220 lethal | ugtP null kill | PrP UTR inh | Mtb hypoxia rep | Mtb hypoxia rep growth
C/C(=N\NC(=O)c1ccccc1)c1ccccc1Br | 2486 | -5 | · | · | -18 | · | ·
COC(=O)CSc1nnc(CNc2ccc(OC)cc2)n1C | 3520 | 4 | 4.1 | 1 | -15 | 3 | 5
CCN(CC)S(=O)(=O)c1ccc(S(=O)(=O)Nc2ccc(C(=O)N3CCCC3)cc2)cc1 | 12607 | -10 | 4.7 | 4 | -10 | 0 | 2
O=C(NCc1ccc(Cl)cc1)c1cc2ccccc2oc1=O | 3754 | -4 | 6.1 | 8 | -43 | 9 | 4
COc1cc(NC(=O)C2CC(c3c(F)cccc3Cl)=NO2)cc(OC)c1OC (stereo unspecified) | 2991 | -3 | · | · | -9 | · | ·
COc1cc(OC)cc(C(=O)N2CCN(C(=O)Cc3ccccc3)CC2)c1 | 4587 | 0 | 13 | 1 | -13 | 13 | 13
CNS(=O)(=O)c1ccc2c(c1)C(=O)c1cc(S(=O)(=O)NC)ccc1CC2 | 3074 | · | 7.4 | 12 | -29 | 13 | 11
CCCc1ccc(OCC(O)CN2CCN(CCO)CC2)cc1 (stereo unspecified) | 4362 | 1 | 3.9 | 1 | -4 | -2 | 5
Cc1ccc(C2Nc3cccc4cccc(c34)N2)s1 | 1702 | -9 | -3.1 | -16 | 12 | 12 | 5
O=c1[nH][nH]cc1C=Nc1ccc(Oc2ccccc2)cc1 | 2411 | 4 | 4.3 | 9 | 0 | 8 | 0
Cc1ccc(-n2nc(C(=O)N3CCN(C)CC3)c3c4ccccc4n(C)c3c2=O)cc1 | 3440 | 4 | 2.4 | 9 | -2 | · | ·
Nc1nc(SCC(=O)NCC2CCCO2)[nH]c(=O)c1NC(=O)c1ccc(F)c(F)c1 (stereo unspecified) | 6486 | -5 | -0.4 | -3 | -13 | -1 | 10
Cc1cc(CN2CCCC(N3CCc4ccccc4C3)C2)cc(C)c1O (stereo unspecified) | 3835 | 5 | 1.5 | 3 | 0 | 1 | 10
Nc1nnc(-c2ccc(F)cc2)s1 | 8383 | -7 | -2.5 | 0 | · | 10 | -3
COc1ccc(OC)c(NC(=O)c2cc(-c3cc(Cl)ccc3O)n[nH]2)c1 | 7654 | -7 | -4.9 | -9 | 4 | 4 | 8
Cc1ccc(NC(=O)CN(C)C(=O)Cn2ncc(Cl)c(Cl)c2=O)cc1 | 11457 | -13 | 8.3 | -1 | 32 | 8 | 9
O=C(COC(=O)/C=C/c1cccc(Cl)c1)Nc1c(F)cccc1F | 3765 | · | 3.1 | 2 | -8 | 4 | 14
CC(NC(=O)COC(=O)C1CC1C)c1cccc(Cl)c1 (stereo unspecified) | 9036 | · | 3.7 | 8 | -25 | 0 | 7
CC(=O)[C@H]1CC[C@H]2[C@@H]3CCC4=CC(=O)CC[C@]4(C)[C@H]3[C@H](O)C[C@]12C | 4490 | -5 | · | · | -8 | · | ·
Cc1ccc(Cn2c(C(CO)Nc3nc(-c4ccc(F)cc4)cs3)nc3ccccc32)cc1 (stereo unspecified) | 4145 | -1 | -10 | 4 | -8 | 4 | 7
CCCCC(=O)Nc1ccc(NC(=O)C(C)C)cn1 | 4040 | -2 | -3.1 | 1 | -29 | · | ·
CCOc1ccc(NC(=O)CN(c2ccc(OC)cc2)S(=O)(=O)c2cccs2)cc1 | 2648 | · | 4.7 | 12 | 15 | 22 | 6
O=C(CN1C(=O)S/C(=C/c2ccncc2)C1=O)N1CCOCC1 | 11265 | 7 | 5.3 | 1 | -23 | -5 | -3
O=S1(=O)CCOCC(Cc2ccccc2)N1Cc1ccc(F)cc1 (stereo unspecified) | · | · | 7.7 | 7 | · | 13 | 11
COc1ccc(O)c(C(=O)c2cc(C(=O)NCCc3ccccc3)c(=O)n(CCc3ccccc3)c2)c1 | 2589 | 4 | -1.9 | -14 | -25 | 2 | 6

Quoted at random: five entries already listed, in no set order.
SMILES | Autofluor counter | BJeLR viability | Sa RN4220 lethal | ugtP null kill | PrP UTR inh | Mtb hypoxia rep | Mtb hypoxia rep growth
CCCc1ccc(OCC(O)CN2CCN(CCO)CC2)cc1 (stereo unspecified) | 4362 | 1 | 3.9 | 1 | -4 | -2 | 5
COc1ccc(OC)c(NC(=O)c2cc(-c3cc(Cl)ccc3O)n[nH]2)c1 | 7654 | -7 | -4.9 | -9 | 4 | 4 | 8
Cc1cc(CN2CCCC(N3CCc4ccccc4C3)C2)cc(C)c1O (stereo unspecified) | 3835 | 5 | 1.5 | 3 | 0 | 1 | 10
Cc1ccc(Cn2c(C(CO)Nc3nc(-c4ccc(F)cc4)cs3)nc3ccccc32)cc1 (stereo unspecified) | 4145 | -1 | -10 | 4 | -8 | 4 | 7
COC(=O)CSc1nnc(CNc2ccc(OC)cc2)n1C | 3520 | 4 | 4.1 | 1 | -15 | 3 | 5

More records
SMILES | Autofluor counter | BJeLR viability | Sa RN4220 lethal | ugtP null kill | PrP UTR inh | Mtb hypoxia rep | Mtb hypoxia rep growth
COc1ccc(CC(=O)OCC(=O)Nc2ncc(Cl)cc2Cl)cc1 | 4336 | 0 | -1.4 | 1 | -2 | · | ·
CN(C)c1ccc(C(=O)NCC2CCCO2)cc1 (stereo unspecified) | 4128 | -3 | 0.9 | 2 | -21 | 4 | 5
Cc1cc(C)n2nc(C(=O)N/N=C/c3c4ccccc4cc4ccccc34)nc2n1 | 2385 | 8 | · | · | -28 | · | ·
Cn1cc(S(=O)(=O)c2ccccc2)c(=O)c2cc(F)c(N3CCOCC3)cc21 | 4438 | 0 | 4.4 | 7 | 7 | -3 | -6
Cc1ccc(NCC(=O)Nc2c(C)n(C)n(-c3ccccc3)c2=O)cc1S(=O)(=O)N(C)C | 3546 | 2 | · | · | -9 | · | ·
Cc1ccc(CN(C)CC(=O)Nc2ccccc2C(=O)NC2CC2)o1 | ? | · | 0.7 | -1 | -26 | 3 | 2
COc1ccc(CNC(=O)C2CCN(C(=O)c3cccc(Cl)c3)CC2)cc1 | 5005 | -4 | -1.0 | 4 | -8 | 2 | 10
CN(C1CCCCC1)S(=O)(=O)c1ccc(=S)[nH]c1 | 3930 | · | 0.6 | 24 | -16 | 7 | 11
CC(=O)N/C(=C/c1ccc(Cl)cc1)C(=O)NCCc1c[nH]c2ccccc12 | 2371 | -6 | -3.2 | 4 | -4 | · | ·
CCc1nc2cc3sc(CC)nc3cc2s1 | 3220 | 7 | 2.2 | 14 | -47 | 7 | 3
Cc1nc2sccn2c1-c1csc(NCc2ccccc2)n1 | 7909 | 11 | 7.7 | -13 | -1 | 1 | 6
Cc1ccc2c(c1)=NC(=O)/C(=C/c1c(O)[nH]c(=O)[nH]c1=O)C=2 | 3999 | 4 | 5.3 | 11 | -20 | -3 | 8
CC1(C)Cc2cccc(C(=O)NC3CCN(Cc4ccccc4)CC3)c2O1 | 4449 | -2 | 2.3 | 0 | -1 | 6 | -4
c1cnc(N2CCNCC2)nc1 | 4304 | -5 | 6.1 | 0 | -21 | -1 | -4
CCc1ccc(-n2c(C)cc(C=NNC(=O)c3ccncc3)c2C)cc1 | · | · | 3.8 | 3 | · | · | ·
C#CCOCCOCCOCCNc1nc(N2CCOCC2)nc(N2CCN(C(=O)[C@H]([C@@H](C)CC)n3cc(CCCCN)nn3)CC2)n1 | 3917 | 9 | · | · | -15 | · | ·
CNCC/C=C1/c2ccccc2CSc2ccccc21 | 3861 | -4 | -4.8 | 7 | -15 | · | ·
O=C(O)CCCC(=O)Nc1cccc(-c2nc3ccccc3[nH]2)c1 | 16669* | 0 | 0.4 | 6 | -1 | 8 | 1
CCCn1c(C(C)Nc2nc(-c3ccc(OC)cc3)cs2)nc2ccccc21 (stereo unspecified) | 4305 | 7 | -2.1 | -2 | -22 | -7 | 4
CN(C)CCCNC(=S)Nc1ccc(Br)cc1 | 4343 | -8 | 2.5 | 5 | 1 | 7 | 10
CC(C)(C)NC(=O)c1ccc(COCC(F)(F)F)o1 | 5716 | 11 | 1.4 | 7 | -66 | 21 | 10
CC(C)c1ccc(C2=NN(c3ccccc3)C(=O)CC2)cc1 | 2487 | -12 | -2.0 | 32 | -19 | 9 | 2
NNC(=O)CSc1ncc(-c2ccccc2)[nH]1 | 4233 | -3 | 1.3 | 0 | -21 | 6 | 0
O=C(Cn1cc(C(F)(F)F)ccc1=O)N/N=C/c1ccccc1 | 4306 | -10 | · | · | -18 | · | ·
CCOCCCn1c(=NC(=O)c2ccc(OC)c(OC)c2)c(C#N)cc2c(=O)n3cccc(C)c3nc21 | · | 1 | 2.1 | 0 | · | 12 | 3

Following part
SMILES | Autofluor counter | BJeLR viability | Sa RN4220 lethal | ugtP null kill | PrP UTR inh | Mtb hypoxia rep | Mtb hypoxia rep growth
CC(C(=O)Nc1ccc(F)cc1Cl)N(C)CCOc1ccccc1 (stereo unspecified) | 3594 | -8 | 5.2 | 6 | -22 | 5 | -1
O=C(Cc1ccccc1)NCc1n[nH]c(=S)n1-c1ccccc1 | 3417 | 2 | 4.3 | 6 | -38 | 11 | 0
CC(C)CCC(C(=O)O)C(C)CC(=O)NC1CCCCC1 (stereo unspecified) | 9931 | -8 | 2.6 | 11 | -23 | 1 | 1
COC(=O)c1cnn(-c2ccc(C)c(C)c2)c1-n1cccc1 | 11131 | -1 | 5.3 | 6 | -27 | 14 | 2
NC(=O)c1cc2cc(Cc3ccccc3Cl)ccc2oc1=O | 3309 | -20 | -4.0 | 8 | -2 | 0 | 0
Cc1ccsc1C(=O)C1CCCN(Cc2ccc(O)cc2)C1 (stereo unspecified) | 4728 | 2 | 5.4 | -6 | -35 | 5 | 5
Cn1c(=O)[nH]c(=O)c2c1nc(SCc1ccccc1Cl)n2CC(N)=O | 4297 | -7 | · | · | -16 | · | ·
O=C(NNC1CC(c2ccccc2)=NN1C(=O)c1ccccc1)c1ccccc1 (stereo unspecified) | 4451 | -20 | 8.0 | 4 | -18 | -7 | 2
N#Cc1sc2nc(C3CC3)cc(-c3ccc(Cl)cc3)c2c1N | 1998 | -4 | 10 | 14 | 9 | -10 | -8
CC(=NNC(=O)c1c(Cl)c(C)nn1C)c1cccc(NC(=O)COc2ccccc2)c1 | · | · | 14 | 2 | · | 13 | 6
Cc1ccc(OCC(=O)NNC(=O)c2ccccc2OCc2c(C)noc2C)cc1 | 5662 | -2 | 5.5 | 12 | -5 | 10 | -5
Cc1cc(C)n(CCn2nc(C)cc2C)n1 | 4195 | · | 3.2 | -8 | -24 | · | ·
COc1cccc(N2C(=O)C3C(C2=O)C3(c2ccccc2)c2ccccc2)c1 (stereo unspecified) | 6003 | 9 | 2.0 | 9 | -14 | 7 | -8
O=c1cc2ncc(-c3[nH]ncc3[N+](=O)[O-])cn2[nH]1 | 4239 | 3 | 2.3 | 4 | -12 | 7 | -7
CCc1nn(CC(=O)NCCCN2CCOCC2)c(=O)c2cc3cc(F)ccc3n12 | 5115 | -9 | 2.0 | 4 | -3 | 9 | 7
Cc1ccc(C)c(C=NNC(=S)NC(C)C)c1 | · | · | 4.7 | 15 | · | 13 | 6
COC(=O)c1ccc(CSc2nnc(Nc3ccc(OC)cc3)s2)o1 | 2976 | -5 | -1.6 | -1 | -16 | 7 | 0
C[C@@H]1CCC2[C@](C)(CO)[C@@H](O)CC[C@]2(C)[C@@]12CC[C@@](CO)(CC(=O)O)O2 (stereo partly specified) | 3563 | 3 | 2.9 | -4 | -14 | 2 | 7
Cc1nnc2sc(SCC(=O)N3CCC(C)CC3)nn2c1=O | 4561 | 8 | 7.0 | 15 | -8 | -1 | -3
CCN(Cc1ccccc1)C(=O)COC(=O)c1cnc(C)cn1 | 4341 | 5 | 4.3 | 0 | -1 | -1 | 12
CCN(CC)CCCN(C(=O)c1ccccc1F)c1nc(-c2ccc(OC)cc2)cs1 | 3992 | 11 | 0.8 | 7 | -11 | 1 | 13
Cc1ccc(S(=O)(=O)N2CCCC2)cc1C(=O)Nc1ccc(-n2cnnn2)cc1 | 6874 | · | 4.7 | 9 | -2 | 6 | 4
CC(C)C(NCC(=O)Nc1ccccc1C(=O)NC1CC1)c1ccccc1 (stereo unspecified) | 3414 | · | 5.3 | 5 | -18 | 15 | 12
CCOc1ncccc1C(=O)Nc1ccc(F)c(Cl)c1 | 5120 | 3 | 2.7 | 6 | -20 | 6 | 16
O=C(CN(Cc1ccco1)C(=O)Cn1nnc(-c2cccs2)n1)NCc1ccccc1 | 9947 | 0 | -2.8 | 8 | -42 | 17 | 8
O=C(NCCC1=CCCCC1)c1ccc(-n2cncn2)cc1 | 3668 | · | -3.9 | -1 | -30 | -8 | 10
O=C(NC1CCCCCC1)C1c2ccccc2C(=O)N1Cc1ccco1 (stereo unspecified) | 8372 | -14 | 5.7 | 9 | -10 | 7 | 3
